A1 apoptosis 2: A1 inhibition read as caspase activation | MEF A1-2A-BIM cells, caspase-Glo luminescence, 3 h; percent of clofoctol response, DMSO zero | caspase activation, % (test concentration not listed) | 24,000 tested, under 10 active | AID 2465; in the data active = caspase activation above about 5.9%;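 note: wells of about 30 µL received 50 nL stock; the first replicate is given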
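System: mouse embryonic fibroblasts co-expressing A1 and BIM (A1-2A-BIM), primed for A1 dependence; amount: 2500 cells/well; doses: 50 nL pinned compound; schedule: cells settled overnight, compound exposure 3 h at 37 °C, 5% CO2; detection: Caspase-Glo 3/7 luminescence, 1 h at room temperature; read-out: Caspase-3/7 activation, seen as rise in luminescence signal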
An asterisk follows results filed as active; & = joins results of further samples. Only part of the results is shown (hit frequency here may not be typical).

> C[C@H](CO)N1C[C@H](C)[C@@H](CN(C)S(=O)(=O)c2ccc(Cl)cc2)Oc2ccc(NC(=O)Nc3ccccc3)cc2C1=O
- A1 apoptosis 2 = 0.5

> C[C@@H]1CCCCO[C@@H](CN(C)CC2CCCCC2)[C@H](C)CN([C@@H](C)CO)C(=O)c2cc(NC(=O)NC3CCCCC3)ccc2O1
- A1 apoptosis 2 = 1.6

> O=C(NCC(F)(F)F)[C@@H]1c2ccccc2C(=O)N(CC23CC4CC(CC(C4)C2)C3)[C@H]1c1ccc(CO)cc1
- A1 apoptosis 2 = 0.6

> COc1ccc(CN2C(=O)[C@@H]3[C@H]4C(=O)O[C@H](c5ccccc5)[C@@H](C)N(C)C(=O)CC/C=C/[C@H]4O[C@@]34C=CCN(Cc3ccccc3)C(=O)[C@@H]24)cc1
- A1 apoptosis 2 = -1.0&-0.4

> Cc1noc(C)c1S(=O)(=O)Nc1ccc2c(c1)C(=O)N([C@@H](C)CO)C[C@H](C)[C@H](CN(C)C(=O)Nc1cccc3ccccc13)OCCCC[C@H](C)O2
- A1 apoptosis 2 = -0.3

> C[C@@H]1CN([C@@H](C)CO)C(=O)c2cc(NS(=O)(=O)c3cn(C)cn3)ccc2O[C@H]1CN(C)CC1CC1
- A1 apoptosis 2 = 1.6

> COc1ccc(CN(C)C[C@@H]2Oc3ccc(NS(=O)(=O)c4ccc(Cl)cc4)cc3CC(=O)N([C@H](C)CO)C[C@@H]2C)cc1
- A1 apoptosis 2 = -0.3

> C[C@H](CO)N1C[C@H](C)[C@H](CN(C)CC2CCCCC2)Oc2c(NS(=O)(=O)c3ccc(F)cc3)cccc2C1=O
- A1 apoptosis 2 = -1.6

> CC(C)NC(=O)N(C)C[C@H]1Oc2ccc(NC(=O)CCCCCC(=O)Nc3ccccc3N)cc2CC(=O)N([C@@H](C)CO)C[C@@H]1C
- A1 apoptosis 2 = 0.0

> C[C@@H]1CN([C@H](C)CO)C(=O)c2cccc(NS(C)(=O)=O)c2O[C@H]1CN(C)Cc1ccccc1
- A1 apoptosis 2 = -0.6

> Cc1ccc(S[C@]2(C(=O)NCC(F)(F)F)CC(=O)N(C3CCCCC3)[C@@H]2c2ccc(CO)cc2I)cc1
- A1 apoptosis 2 = -0.3

> C[C@@H]1CN([C@H](C)CO)C(=O)c2cc(NS(=O)(=O)c3ccc(F)cc3)ccc2O[C@@H]1CN(C)S(=O)(=O)c1cccs1
- A1 apoptosis 2 = 0.2

> C[C@H](CO)N1C[C@H](C)[C@@H](CN(C)C(=O)Nc2ccc(F)cc2)Oc2ccc(NC(=O)Cc3ccccc3)cc2CC1=O
- A1 apoptosis 2 = -0.6

> C[C@H]1CN([C@@H](C)CO)C(=O)c2cc(NS(=O)(=O)c3ccc(Cl)cc3)ccc2O[C@@H]1CN(C)S(=O)(=O)c1cccs1
- A1 apoptosis 2 = -0.9

> C[C@@H]1CN([C@@H](C)CO)C(=O)c2cccc(NC(=O)Nc3ccc(C(F)(F)F)cc3)c2O[C@@H]1CN(C)Cc1ccccc1
- A1 apoptosis 2 = 0.8

> COc1ccc(CN(C)C[C@@H]2Oc3ccc(NC(=O)CCN4CCOCC4)cc3C(=O)N([C@@H](C)CO)C[C@H]2C)cc1
- A1 apoptosis 2 = -0.5

> Cc1noc(C)c1NC(=O)Nc1ccc2c(c1)CC(=O)N([C@@H](C)CO)C[C@@H](C)[C@H](CN(C)C(=O)NC1CCCCC1)O2
- A1 apoptosis 2 = -0.3

> COc1ccc(NC(=O)N(C)C[C@@H]2OCCCC[C@H](C)Oc3ccc(NC(=O)Nc4cccc5ccccc45)cc3C(=O)N([C@@H](C)CO)C[C@H]2C)cc1
- A1 apoptosis 2 = 2.3

> Cc1ccc(S(=O)(=O)N(C)C[C@H]2Oc3c(NC(=O)Nc4ccc5c(c4)OCO5)cccc3C(=O)N([C@H](C)CO)C[C@H]2C)cc1
- A1 apoptosis 2 = 0.5

> Cc1cc(C(=O)Nc2cccc3c2O[C@@H](CN(C)Cc2ccncc2)[C@H](C)CN([C@H](C)CO)C3=O)n(C)n1
- A1 apoptosis 2 = 0.1

> O=C(N/N=C/c1ccccc1[N+](=O)[O-])c1ccccc1O
- A1 apoptosis 2 = -12

> C[C@@H]1CN([C@H](C)CO)C(=O)Cc2cc(NC(=O)C3CC3)ccc2O[C@@H]1CN(C)C(=O)Nc1ccccc1
- A1 apoptosis 2 = 0.0

> C[C@H](CO)N1C[C@H](C)[C@@H](CN(C)Cc2ccc(C(=O)O)cc2)Oc2ccc(NC(=O)CCCN(C)C)cc2C1=O
- A1 apoptosis 2 = 0.3

> Cc1ccc(S(=O)(=O)N(C)C[C@@H]2OCCCC[C@@H](C)Oc3ccc(N(C)C)cc3C(=O)N([C@H](C)CO)C[C@H]2C)cc1
- A1 apoptosis 2 = 0.5

> COc1ccc(NC(=O)Nc2cccc3c2O[C@H](CN(C)S(=O)(=O)c2ccc(C)cc2)[C@@H](C)CN([C@H](C)CO)C3=O)cc1
- A1 apoptosis 2 = -1.2

> COc1ccc(C2CC(=O)Oc3ccc(C(C)(C)C)cc32)cc1 (stereo not given)
- A1 apoptosis 2 = -0.3

> Cc1ccc(S(=O)(=O)N(C)C[C@H]2Oc3c(NC(=O)Nc4ccc(F)cc4)cccc3C(=O)N([C@@H](C)CO)C[C@@H]2C)cc1
- A1 apoptosis 2 = -0.2

> CC(C)NC(=O)Nc1cccc2c1O[C@@H](CN(C)Cc1ccc(Cl)c(Cl)c1)[C@@H](C)CN([C@H](C)CO)C2=O
- A1 apoptosis 2 = -1.8

> C[C@@H]1CN([C@@H](C)CO)C(=O)CCCn2nncc2CO[C@@H]1CN(C)Cc1ccc(O)cc1
- A1 apoptosis 2 = 1.0

> C[C@@H]1CCCCO[C@@H](CN(C)S(C)(=O)=O)[C@@H](C)CN([C@H](C)CO)C(=O)c2cc(NC(=O)Nc3cccc4ccccc34)ccc2O1
- A1 apoptosis 2 = 1.4

> Cc1noc(C)c1NC(=O)Nc1ccc2c(c1)CC(=O)N([C@@H](C)CO)C[C@H](C)[C@H](CN(C)Cc1ccc(C(=O)O)cc1)O2
- A1 apoptosis 2 = 0.0

> CNC[C@H]1Oc2ccc(N)cc2C(=O)N([C@H](C)CO)C[C@@H]1C
- A1 apoptosis 2 = -0.1

> C[C@@H]1CN([C@H](C)CO)C(=O)c2cc(NC(=O)C3CCCCC3)ccc2O[C@@H](C)CCCCO[C@@H]1CN(C)Cc1ccncc1
- A1 apoptosis 2 = 1.7

> COc1ccc(S(=O)(=O)N(C)C[C@H]2Oc3c(NC(=O)Nc4cccc5ccccc45)cccc3C(=O)N([C@@H](C)CO)C[C@@H]2C)cc1
- A1 apoptosis 2 = -0.8

> Cc1ccc(S(=O)(=O)Nc2cccc3c2O[C@H](CN(C)Cc2ccc(Cl)c(Cl)c2)[C@@H](C)CN([C@H](C)CO)C3=O)cc1
- A1 apoptosis 2 = -0.1

> COc1ccc(S(=O)(=O)N(C)C[C@H]2Oc3ccc(NS(=O)(=O)c4ccc(C)cc4)cc3CC(=O)N([C@H](C)CO)C[C@H]2C)cc1
- A1 apoptosis 2 = 0.8

> CC(C)NC(=O)N(C)C[C@@H]1OCCCC[C@@H](C)Oc2ccc(NC(=O)Nc3ccc(C(F)(F)F)cc3)cc2C(=O)N([C@H](C)CO)C[C@@H]1C
- A1 apoptosis 2 = 0.4

> Cc1ccc(S(=O)(=O)N(C)C[C@@H]2OCCCC[C@@H](C)Oc3ccc(N(C)C)cc3C(=O)N([C@H](C)CO)C[C@@H]2C)cc1
- A1 apoptosis 2 = 0.4

> COc1ccc(NC(=O)Nc2ccc3c(c2)C(=O)N([C@@H](C)CO)C[C@@H](C)[C@H](CN(C)S(=O)(=O)c2cccs2)O3)cc1
- A1 apoptosis 2 = -0.1

> COc1ccc(NC(=O)N(C)C[C@@H]2Oc3c(NS(=O)(=O)c4ccccc4)cccc3C(=O)N([C@H](C)CO)C[C@@H]2C)cc1
- A1 apoptosis 2 = -0.3

> C[C@@H]1CN([C@H](C)CO)C(=O)c2cccc(NC(=O)Nc3ccc(C(F)(F)F)cc3)c2O[C@@H]1CN(C)C(=O)Nc1ccc2c(c1)OCO2
- A1 apoptosis 2 = 0.2

> O=C(OC[C@@H]1[C@H]2c3ccccc3OC1(CO)N=C1SCCCN12)c1ccccc1
- A1 apoptosis 2 = 0.5

> COc1ccc(CN(C)C[C@@H]2Oc3ccc(NC(=O)CCN4CCOCC4)cc3C(=O)N([C@H](C)CO)C[C@@H]2C)cc1
- A1 apoptosis 2 = 0.8

> C[C@H](CO)N1C[C@H](C)[C@@H](CN(C)C(=O)Nc2ccc(F)cc2)Oc2ccc(NC(=O)Cc3cn(C)c4ccccc34)cc2C1=O
- A1 apoptosis 2 = -0.5

> C[C@@H]1CN([C@H](C)CO)C(=O)c2cccc(NS(=O)(=O)c3ccc(F)cc3)c2O[C@H]1CN(C)S(=O)(=O)c1ccc(F)cc1
- A1 apoptosis 2 = 0.0

> C[C@@H]1CN([C@H](C)CO)C(=O)c2cc(NC(=O)Cc3ccccc3)ccc2O[C@@H](C)CCCCO[C@H]1CN(C)Cc1ccncc1
- A1 apoptosis 2 = -1.2

> C[C@H]1CN([C@@H](C)CO)C(=O)CCCn2nncc2CO[C@H]1CN(C)CC1CCCCC1
- A1 apoptosis 2 = -0.9

> C[C@@H]1CCCCO[C@@H](CN(C)C(=O)Cc2ccccc2)[C@@H](C)CN([C@@H](C)CO)C(=O)c2cc(NS(=O)(=O)c3cccs3)ccc2O1
- A1 apoptosis 2 = -0.1

> C[C@@H]1CCCCO[C@H](CN(C)Cc2ccc3c(c2)OCO3)[C@H](C)CN([C@@H](C)CO)C(=O)c2cc(NC(=O)Nc3ccc(C(F)(F)F)cc3)ccc2O1
- A1 apoptosis 2 = -0.9

> C[C@H](CO)N1C[C@H](C)[C@H](CN(C)C(=O)Nc2ccc3c(c2)OCO3)Oc2c(NC(=O)C3CC3)cccc2C1=O
- A1 apoptosis 2 = -0.8

> CC(C)NC(=O)Nc1ccc2c(c1)CC(=O)N([C@H](C)CO)C[C@H](C)[C@H](CN(C)Cc1ccc(Cl)c(Cl)c1)O2
- A1 apoptosis 2 = 0.3

> COc1ccc(S(=O)(=O)Nc2cccc3c2O[C@@H](CN(C)C)[C@@H](C)CN([C@@H](C)CO)C3=O)cc1
- A1 apoptosis 2 = 0.6

> C[C@@H]1CCCCO[C@H](CN(C)Cc2ccc(Cl)c(Cl)c2)[C@@H](C)CN([C@H](C)CO)C(=O)c2cc(NC(=O)CCC(F)(F)F)ccc2O1
- A1 apoptosis 2 = -1.1

> C[C@H]1CN([C@@H](C)CO)C(=O)c2cc(N(C)C)ccc2O[C@H]1CN(C)S(=O)(=O)c1cn(C)cn1
- A1 apoptosis 2 = 0.9

> C[C@@H]1CCCCO[C@@H](CN(C)S(C)(=O)=O)[C@H](C)CN([C@H](C)CO)C(=O)c2cc(N(C)C)ccc2O1
- A1 apoptosis 2 = -0.3

> O=C(O)CCCCCCC(=O)N/N=C/c1cc(O)ccc1Br
- A1 apoptosis 2 = 0.6

> C[C@@H]1CCCCO[C@@H](CN(C)Cc2ccc(Cl)c(Cl)c2)[C@H](C)CN([C@H](C)CO)C(=O)c2cc(NC(=O)CCC(F)(F)F)ccc2O1
- A1 apoptosis 2 = 1.1

> COc1ccc(CN(C)C[C@H]2Oc3ccc(NC(=O)Cc4ccccc4)cc3C(=O)N([C@@H](C)CO)C[C@@H]2C)cc1
- A1 apoptosis 2 = 0.2

> C[C@H](CO)N1C[C@H](C)[C@H](CN(C)Cc2ccc(-c3ccccc3)cc2)Oc2c(NC(=O)c3ccncc3)cccc2C1=O
- A1 apoptosis 2 = -1.2

> O=C(N/N=C/c1ccc(F)c(Oc2ccccc2)c1)c1ccccn1
- A1 apoptosis 2 = -4.3

> C[C@H](CO)N1C[C@H](C)[C@H](CN(C)S(=O)(=O)c2cccs2)OCCCC[C@H](C)Oc2ccc(NS(=O)(=O)c3cn(C)cn3)cc2C1=O
- A1 apoptosis 2 = -0.2

> COc1ccc(NC(=O)Nc2ccc3c(c2)CC(=O)N([C@H](C)CO)C[C@@H](C)[C@@H](CN(C)C)O3)cc1
- A1 apoptosis 2 = -0.9

> CNC[C@@H]1Oc2ccc(NC(=O)Nc3ccccc3)cc2CC(=O)N([C@@H](C)CO)C[C@@H]1C
- A1 apoptosis 2 = -0.6

> C[C@@H]1CN([C@H](C)CO)C(=O)c2cc(N(C)C)ccc2O[C@H]1CN(C)C(=O)Nc1ccccc1
- A1 apoptosis 2 = -0.1

> C[C@@H]1CCCCO[C@@H](CN(C)C(=O)Cc2ccccc2)[C@H](C)CN([C@@H](C)CO)C(=O)c2cc(NC(=O)CCCCCC(=O)Nc3ccccc3N)ccc2O1
- A1 apoptosis 2 = 1.2

> COc1ccc(CN(C)C[C@@H]2OCCCC[C@@H](C)Oc3ccc(NS(=O)(=O)c4ccc(OC)cc4)cc3C(=O)N([C@H](C)CO)C[C@H]2C)cc1
- A1 apoptosis 2 = -0.8

> C[C@@H]1CN([C@@H](C)CO)C(=O)Cc2cc(NC(=O)Nc3ccc(F)cc3)ccc2O[C@H]1CN(C)Cc1ccc2c(c1)OCO2
- A1 apoptosis 2 = 0.7

> C[C@@H]1CN([C@@H](C)CO)C(=O)c2cc(NC(=O)CCC(F)(F)F)ccc2O[C@@H](C)CCCCO[C@@H]1CN(C)C(=O)CCCN(C)C
- A1 apoptosis 2 = 0.8

> Cc1ccc(S(=O)(=O)Nc2ccc3c(c2)C(=O)N([C@@H](C)CO)C[C@@H](C)[C@@H](CN(C)S(=O)(=O)c2ccc(C)cc2)OCCCC[C@@H](C)O3)cc1
- A1 apoptosis 2 = 0.6

> Cc1ccc(S(=O)(=O)N(C)C[C@H]2OCCCC[C@H](C)Oc3ccc(NS(=O)(=O)c4cccs4)cc3C(=O)N([C@@H](C)CO)C[C@@H]2C)cc1
- A1 apoptosis 2 = -0.7

> Cc1ccc(S(=O)(=O)N(C)C[C@H]2Oc3ccc(NC(=O)Nc4ccc5c(c4)OCO5)cc3CC(=O)N([C@H](C)CO)C[C@H]2C)cc1
- A1 apoptosis 2 = -0.3

> C[C@H]1CCCCO[C@H](CN(C)C(=O)C2CCCCC2)[C@@H](C)CN([C@@H](C)CO)C(=O)c2cc(NS(=O)(=O)c3cn(C)cn3)ccc2O1
- A1 apoptosis 2 = 0.7
